# Screening results (PubChem BioAssay)
# Proteasome disasm – blocks ATP-dependent breakdown of the yeast 26S proteasome; inhibition of disassembly, % (test concentration not listed); anti-FLAG beads, GFP-proteasome disassembly, flow cytometry; 24,000 tested, 0.2% active;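 active = above 40%; inconclusive = likely self-fluorescent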;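 note: plate controls were ATP control with full disassembly for no effect and ATP-gamma-S intact proteasomes for full effect; higher percent means more bead fluorescence retained so stronger block of disassembly; stock transfer was 100 nL into about 10 µL; wells with too few beads may also be inconclusive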
# VCAM-1 rise – enhancers of VCAM-1 display on endothelial cells, cell-based, plate reader, pooled HUVEC, TNFa stimulus (AID 455) | augmentation, % at 5 µM | 10,000 tested, 0.2% active | HUVEC TNFa-induced VCAM-1 immunofluorescence, plate reader; numbers were filed only for top-ranked candidate wells;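 active = a compound raising TNF-alpha-driven VCAM-1 surface staining, with its hit status upheld on visual or statistical review; inactive = the rest, including hits rejected on review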;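 note: 0% = TNFa with vehicle and 100% = strongest image-checked hit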
# * marks the source's active call; other numbers are inactive results; i = inactive; ? = inconclusive; . = no result given.
SMILES,Proteasome disasm,VCAM-1 rise
Cc1ccc(Cn2ncn3c(cc4ccccc43)c2=O)cc1,2.3,.
CCOC(=O)C(NC(=O)C1CCCN1C(=O)OCc1ccccc1)C(=O)OCC (stereo not given),-1.7,i
CCC(Sc1nc2sc(C(=O)OC)c(C)c2c(=O)n1N)C(=O)NCC1CCCO1 (stereo not given),-1.6,i
Nc1ccc(-n2nncc2-c2ccco2)cc1,-0.1,.
Cc1ccc(-n2c3c(cc(C(=O)NCCCN4CCOCC4)c2=O)C(=O)CC(C)(C)C3)cc1,-0.9,i
O=C(Cn1c(=O)oc2cc(S(=O)(=O)N3CCCC3)ccc21)Nc1ccc(C(F)(F)F)cc1,1.1,.
Cc1cc(=O)oc(C)c1C(=O)N1CCc2c([nH]c3ccccc23)C1C(C)C (stereo not given),2.5,.
O=C(Cn1cc2c(n1)CCCC2)N1CCCC1,-0.7,.
COc1ccc(-n2nnc3c(SCC(=O)N4CCN(c5ccccc5)CC4)ncnc32)cc1,0.4,.
Cn1c(=O)c2c(nc(NCc3ccco3)n2C/C=C/c2ccccc2)n(C)c1=O,0.7,i
CC(=O)NCC12CC3CC(C1)CC(C(=O)O)(C3)C2,0.0,.
C=CCn1c(SCC(=O)Nc2ccc(C(=O)OCC)cc2)nnc1-c1cccs1,-0.6,.
COC(=O)c1ccc(Cn2cnc3c(cnn3-c3ccc(Cl)cc3)c2=O)o1,-3.0,.
CN(C)C(=O)CSc1nnc2sc3ccccc3n12,0.5,i
Cc1ccccc1CS(=O)(=O)CCC(=O)NCCN1CCN(c2cccc(Cl)c2)CC1,0.9,.
CCOc1ccc(C(c2nnnn2Cc2ccccc2)N2CCN(C(=O)c3ccco3)CC2)cc1 (stereo not given),-0.4,i
O=C(NCCSCc1ccccc1)c1cc(S(=O)(=O)N2CCOCC2)ccc1F,0.9,.
N#CCc1nc(CSc2nc3ccccc3s2)cs1,?,i
CCOC(=O)CSc1nnc(NC(=O)c2cccc(S(=O)(=O)N3CCCCC3)c2)s1,-0.8,i
CCOC(=O)Cn1c(=O)oc2cc(S(=O)(=O)N3CCCc4ccccc43)ccc21,2.1,.
OC(c1ccccn1)c1c[nH]c2ccccc12 (stereo not given),1.1,.
Cc1cc(C)nc(/N=C2\NC(=O)CC(C(=O)O)N2c2ccc(Cl)cc2)n1 (stereo not given),0.8,i
Fc1ccc(-c2cnc[nH]2)cc1,1.2,i
Cc1ccc(C)c(N2CCN(S(=O)(=O)c3c(C)noc3/C=C/N(C)C)CC2)c1,48.8*,.
Clc1ccc(C2CC(c3cccs3)n3ncnc3N2)cc1Cl (stereo not given),1.2,.
# Next records:
SMILES,Proteasome disasm,VCAM-1 rise
CSc1cccc(NC(=O)C2CCCN(S(=O)(=O)c3cnc[nH]3)C2)c1 (stereo not given),0.8,.
Cc1ccccc1-n1c(=O)cc(NCc2ccc3c(c2)OCO3)[nH]c1=O,-0.6,i
COc1ccccc1CNC(=O)c1cc2c(s1)CS(=O)(=O)C2,1.6,.
CCOC(=O)CN1CC23C=CC(O2)C(C(=O)Nc2ccc(F)cc2)C3C1=O (stereo not given),0.6,.
O=C(NCCCN1CCc2ccccc2C1)C1CCN(S(=O)(=O)N2CCCC2)CC1,0.8,.
Cc1nc2ccc(S(=O)(=O)NCC(=O)O)cc2s1,1.4,i
Cc1nc(C)c2c(c1C(F)(F)F)-c1ccccc1C2(F)F,-0.1,i
CCOC(=O)Cn1c(CN2CCOCC2)nc2c1c(=O)[nH]c(=O)n2C,-1.3,i
CCn1nnnc1SCC(=O)N1c2ccccc2CCc2ccccc21,1.7,i
CCOc1ccc(C(=O)Nc2c3c(nn2-c2ccc(C)cc2)CS(=O)C3)cc1OCC (stereo not given),-0.3,.
CCOC(=O)Cn1nc(-c2ccccc2)ccc1=O,0.0,.
CCOC(=O)C1CCN(S(=O)(=O)c2c(C)[nH]c(=O)[nH]c2=O)CC1,-1.4,.
Cc1ccc(CN2C(=O)CCC2C(=O)NCCCN2CCOCC2)cc1 (stereo not given),1.4,.
Cc1cccc(-n2c(CNC(=O)c3ccc(S(=O)(=O)N4CCCC4)cc3)n[nH]c2=S)c1,?,.
CCn1cc(C(=O)Nn2cnnc2)c(=O)c2ccc(C)nc21,1.0,.
O=C(CSc1n[nH]c(-c2ccco2)n1)Nc1sc2c(c1C(=O)Nc1ccccc1)CCCC2,0.2,i
CC(C)N(Cc1nc(-c2ccccc2)no1)S(=O)(=O)c1ccccc1,1.7,.
CCCC(CCC)n1[nH]c(=O)c2c(C)cc(C)nc21,1.0,i
CCS(=O)(=O)N1CCC(C(=O)NCCCN2CCN(c3ccccc3F)CC2)CC1,0.0,.
Cc1ccc(-n2c(Cc3cccn3C)nnc2SCC(=O)Nc2nnc(C)s2)cc1,1.0,.
Cc1cc(=O)oc2c(CN3CCN(C)CC3)c(O)c(Cl)cc12,-1.6,i
CCN(CCCNC(=O)CCNC(=O)Cn1cnc2ccccc2c1=O)c1ccccc1,1.3,.
COCCOC(=O)c1c(C)oc2ccc(NS(=O)(=O)c3ccc(F)cc3)cc12,-1.4,i
Cc1cc(C)cc(N(CC(=O)N2CCn3c2nc2ccccc23)S(=O)(=O)c2c(C)noc2C)c1,1.7,.
CC(C)n1c(=S)[nH]c2c1c(=O)[nH]c(=O)n2C,0.4,.
# The results go on.
SMILES,Proteasome disasm,VCAM-1 rise
Cc1c(Br)c(C(F)(F)F)nn1CC(=O)NCCN1CCOCC1,0.7,i
COc1ccc(N2Cc3cccc(C(=O)N4CCOCC4)c3C2=O)cc1,-0.9,.
O=C(NC1CCCC1)C(NS(=O)(=O)c1cccc2nsnc12)c1ccccc1 (stereo not given),-4.8,i
CC(=O)c1c(C)[nH]c(C(=O)NCc2cccs2)c1C,-0.3,i
Cc1noc(C)c1S(=O)(=O)N1CCC(C(=O)NCCC2=CCCCC2)CC1,-0.3,.
CCc1nnc(SCC(=O)N2CCCc3ccccc32)nc1CC,-1.1,.
CCCCN(CC)S(=O)(=O)c1ccc(C(=O)Nc2nnc(-c3ccccc3Cl)o2)cc1,-1.7,.
CCOc1ccc2[nH]c(C)cc(=O)c2c1,3.1,i
COC(=O)c1c(C)[nH]c(C)c1-c1ccccc1,1.1,.
COc1ccc(OC)c(NC(=O)C2CCC(CNc3c(N4CCC(C)CC4)c(=O)c3=O)CC2)c1 (stereo not given),-0.5,.
CCOC(=O)N1CCC(NC(=O)CC(NS(=O)(=O)c2ccc(Cl)cc2)c2ccco2)CC1 (stereo not given),0.3,.
COc1cc2c3c(c1)/C(=C1/SC(NC(C)=O)=NC1=O)C(=O)N3C(C)(C)C=C2C,3.0,i
Cc1ccccc1N1C(N)=NC(N)=NC1(C)C,0.0,i
COc1ccc(N(C(=O)C2CCCCC2)C2C=CS(=O)(=O)C2)c(OC)c1 (stereo not given),0.6,.
COc1ccc(C(=O)NC(=O)CSc2nnc(-c3ccco3)n2-c2ccccc2)cc1,2.9,i
COc1cccc(C(=O)Nc2ccc(NC(=O)C(C)(C)C)cn2)c1,0.4,i
CCN(CCCNC(=O)Cn1ncc2c(=O)oc3ccccc3c21)c1cccc(C)c1,-0.5,.
CCOC(=O)c1[nH]c(C)c(C)c1C,-0.1,.
COc1ccc(OC)c(-c2cc(C(=O)Nc3cccc(Cl)c3)no2)c1,-1.3,.
Clc1ccccc1-c1nnc2sc(-c3ccncc3)nn12,-1.6,.
Cn1c(=O)c2cc(S(=O)(=O)NCCC(=O)NC3CCCCCCC3)ccc2n(C)c1=O,0.0,.
O=C(Cn1c(=O)n(-c2ccccc2)c(=O)c2sccc21)N1CCCC1,-1.6,.
Cc1ccccc1-n1nc(C)c2cc(C(=O)NCc3cccnc3)sc21,0.1,i
N#Cc1nc(-c2cccs2)oc1NCc1ccc(Cl)cc1,0.3,i
COCCNC(=O)CSc1nc2ccccc2c2nc(C)nn12,-5.7,.

# Compound profiles, from the list above.
# Listed for CCOc1ccc2[nH]c(C)cc(=O)c2c1 : Proteasome disasm: 3.1; VCAM-1 rise: i
# Listed for CCOC(=O)c1[nH]c(C)c(C)c1C : Proteasome disasm: -0.1; VCAM-1 rise: .

# 4 structures from above, ordered by molecular weight, low to high.
SMILES,Proteasome disasm,VCAM-1 rise
COc1ccc(OC)c(-c2cc(C(=O)Nc3cccc(Cl)c3)no2)c1,-1.3,.
COc1cc2c3c(c1)/C(=C1/SC(NC(C)=O)=NC1=O)C(=O)N3C(C)(C)C=C2C,3.0,i
O=C(Cn1c(=O)oc2cc(S(=O)(=O)N3CCCC3)ccc21)Nc1ccc(C(F)(F)F)cc1,1.1,.
CCOC(=O)CSc1nnc(NC(=O)c2cccc(S(=O)(=O)N3CCCCC3)c2)s1,-0.8,i

# Other records
SMILES,Proteasome disasm,VCAM-1 rise
COc1cc(C2C(C#N)=C(N)OC3=C2C(=O)CC(C)(C)C3)ccc1OC(=O)N1CCOCC1 (stereo not given),0.1,i
COC(=O)C1=C(C)NC(=O)C1(Nc1ccc(Cl)cn1)C(F)(F)F (stereo not given),1.0,i
O=C(c1cnn2c(C(F)F)cc(C3CC3)nc12)N1CCOCC1,-0.7,i
CC1CC(=O)N(CC(=O)N2CCCC2)c2ccccc2S1 (stereo not given),2.7,.
O=C(NCc1ccco1)C1CCCN(S(=O)(=O)c2cccc3nonc23)C1 (stereo not given),1.4,.
CCSc1ccc2nnc(-c3ccc(F)cc3)n2n1,0.8,.
COc1ccc(N2C(=O)C3CCCN3C2c2ccccc2Cl)cc1 (stereo not given),-2.3,.
Cc1cc(N/C(=N\S(=O)(=O)c2ccc(Cl)cc2)c2ccc(F)cc2)no1,0.3,.
O=C(NCC(c1cccnc1)N1CCN(c2ccccc2)CC1)OCc1ccccc1 (stereo not given),14.0,.
COc1ccccc1N(CC(=O)NCc1ccccc1)S(C)(=O)=O,-0.6,i
CC(NS(=O)(=O)c1ccccc1)C(c1cccs1)N1CCN(c2ccccc2)CC1 (stereo not given),-0.3,.
CC(CCc1ccccc1)NC(=O)C1CCN(S(=O)(=O)N2CCCCC2)CC1 (stereo not given),1.2,.
COC(=O)c1ccc2c(=O)n(CC3CCCO3)c(=S)[nH]c2c1 (stereo not given),-2.3,i
CC(=O)Nc1c2c(nn1-c1ccc(C)cc1C)CSC2,-1.4,i
Cc1sc2nc3c(C(=O)N4CCN(c5ncccn5)CC4)cccn3c(=O)c2c1C,1.4,.
CCCCCc1ccc(CC(=O)O)cc1,-2.1,.
CCOC(=O)CNC(=O)C(Cc1ccccc1)NS(=O)(=O)c1ccc2c(c1)CCC(=O)N2 (stereo not given),-0.3,i
Cc1ccc(-n2c(Cn3cnc4ccccc43)nnc2SCC(=O)O)cc1,-2.0,i
CCOC(=O)C1CCN(C(=O)c2ccc(NC(=O)C3CCCO3)cc2)CC1 (stereo not given),-1.4,.
CC1(C)CC(=O)C(C=NCCO)=C(O)C1,0.3,i
CC(C)(Oc1ccc(Cl)cc1)C(=O)NCc1ccncc1,4.2,i
COCCCN(C(=O)Cn1ncc2c(=O)oc3ccc(C)cc3c21)C(C)c1ccncc1 (stereo not given),-1.1,.
COc1ccc(C(CC(=O)O)NC(=O)c2cccs2)cc1 (stereo not given),-0.9,.
CCOC(=O)Cn1c(=O)oc2cc(S(=O)(=O)NCCCc3ccccc3)ccc21,1.2,.
Cc1nn(Cc2ccc(Cl)c(Cl)c2)c(C)c1NC(=O)c1cc(C2CC2)on1,0.2,.
# The list goes on.
SMILES,Proteasome disasm,VCAM-1 rise
Clc1cccc2sc(N3CCCC3)nc12,-1.5,.
CSC1=NCCN1C(=O)c1ccc(Br)o1,-0.5,.
O=C(Cn1[nH]c(=O)c2ccccc2c1=O)OCC(=O)N1CCCc2ccccc21,10.7,i
Nc1cc(CN2C(=O)c3ccccc3C2=O)cc(Cl)c1O,5.0,i
CC(C)(C)c1[nH]nc2c1C(c1ccc(OC(=O)c3ccco3)cc1)C(C#N)=C(N)O2 (stereo not given),-1.5,.
O=C(CCS(=O)(=O)c1cccc2nonc12)NC1CCCCCC1,0.0,.
Cc1cc2nc(C3CCN(CC4COc5ccccc5O4)CC3)[nH]c2cc1C (stereo not given),1.3,i
O=C(CSCc1ccccc1Cl)N1CCN(c2ccccn2)CC1,-0.2,.
CCOC(=O)CSc1nnc(-c2ccccc2OC)o1,-0.5,i
COC(=O)C1C2C=CC3(CN(c4ccc(Cl)c(F)c4)C(=O)C13)O2 (stereo not given),-2.1,.
C/C=C/C=[N+](\[O-])C(C)/C(=N/O)c1ccc(F)cc1 (stereo not given),1.8,.
CCOCCCn1c(=S)[nH]c2cc(C(=O)NCCOC)ccc2c1=O,-3.2,.
O=C(NCCN1CCc2ccccc2C1)Nc1ccc(F)cc1,0.8,.
CCS(=O)(=O)N1CCC(C(=O)NCc2ccc(F)cc2Cl)CC1,1.1,.
Cc1cc(C)nc(SCC(=O)Nc2ccc(Br)cn2)n1,1.1,.
O=C(Cn1c(=O)oc2cc(S(=O)(=O)N3CCCC3)ccc21)NC1CCCc2ccccc21 (stereo not given),0.4,.
CCC(=O)Nc1ccc(C(=O)Nc2ccc3c(c2)OCO3)cc1,1.0,.
Cc1oc(-c2ccc(Cl)cc2)nc1CN1CCC(C(=O)NCc2ccco2)CC1,5.0,.

# Proteasome disasm: entries above that show a hit.
SMILES,Proteasome disasm,VCAM-1 rise
Cc1ccc(C)c(N2CCN(S(=O)(=O)c3c(C)noc3/C=C/N(C)C)CC2)c1,48.8*,.

# Only part of the results is shown (hit frequency here may not be typical).
